Screens: PubChem, several laboratories
UUG fidelity: modulators of yeast start codon fidelity, primary screen, whole organism, S. cerevisiae, single point, plate reader | S. cerevisiae UUG-firefly luciferase reporter, luminescence/redox ratio | 350,000 compounds, 0.13% hits | AID 602363, 2012 | activity score, % at 18.7 µM;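 active = replicate mean at a twofold rise or more, about +100% in these data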;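 note: firefly luciferase made from a UUG start codon reports start codon fidelity; reporter light over untreated wells divided by growth signal over untreated wells; some hits fall short of that in this replicate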
HIV Env fusion: inhibitors of HIV-1 Env-driven cell-cell fusion, primary screen, HeLa-JRFL effector, CEM21 target cells, luciferase. inhibition, % at 12.3 µM. 360,000 compounds, 1.1% hits;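 active = mean replicate inhibition score of at least 50 and every replicate individually at or above 50; inconclusive = only one of the two criteria met; inactive = mean below 50 and not all replicates reaching 50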;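 note: 0% = plate neutral controls and 100% = maraviroc near 300 nM; one replicate is shown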
PABP polyA inh: PABP poly(A) RNA binding inhibitors, primary screen, biochemical, fluorescence polarization, uHTS. inhibition, % at 35 µM. Polyadenylate-binding protein 1 (Homo sapiens), P11940. AID 2014, 2009. 290,000 compounds, 1% hits;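 active = 50% or more with normal probe brightness, or confirmed in later tests; inconclusive = above 50% with abnormal brightness, or retests that disagree; inactive = below 50% or failed in later tests; about a fifth of its hits are not listed in these tables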;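 note: calls also rest on retests at 20 µM and on dose response follow-up; controls were probe without protein and protein plus probe with vehicle; some compounds called inactive have numbers as strong as hits; many hits fall short of the cut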
Target sequence (P11940 whole entry, looked up): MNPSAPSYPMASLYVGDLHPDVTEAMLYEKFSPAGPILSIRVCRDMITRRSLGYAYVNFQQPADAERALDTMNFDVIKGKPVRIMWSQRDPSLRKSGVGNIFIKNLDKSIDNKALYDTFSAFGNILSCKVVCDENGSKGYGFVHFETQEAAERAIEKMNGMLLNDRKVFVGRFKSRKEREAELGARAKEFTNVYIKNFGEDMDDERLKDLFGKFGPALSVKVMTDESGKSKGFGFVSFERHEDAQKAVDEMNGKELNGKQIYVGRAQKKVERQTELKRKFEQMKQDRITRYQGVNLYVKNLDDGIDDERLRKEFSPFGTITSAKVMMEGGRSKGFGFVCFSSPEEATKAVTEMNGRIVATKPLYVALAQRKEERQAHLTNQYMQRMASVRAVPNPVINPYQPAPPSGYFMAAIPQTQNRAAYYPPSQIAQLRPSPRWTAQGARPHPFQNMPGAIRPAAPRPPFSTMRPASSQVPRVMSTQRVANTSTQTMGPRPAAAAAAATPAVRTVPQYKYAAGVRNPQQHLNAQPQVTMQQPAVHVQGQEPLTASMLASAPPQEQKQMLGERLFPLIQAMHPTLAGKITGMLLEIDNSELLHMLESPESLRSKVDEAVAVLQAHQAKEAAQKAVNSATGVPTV
MT1-MMP act inh: blockers of MT1-MMP proenzyme processing, primary screen, HT1080 RFP-PRO-GFP cells, GFP/RFP fluorescence. Matrix metalloproteinase-14 (Homo sapiens), P50281. GFP/RFP ratio fluorescence, overnight; percent of plate control window, DMSO zero. GFP/RFP ratio change, % at 20 µM. 360,000 compounds, 0.061% hits;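 active = GFP/RFP ratio change of at least 30% with cell ATP level not reduced by more than half and red fluorescence within 50% of control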; note: strong numbers were not always called active
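Assay system: HT1080 RFP-PRO-GFP cells. Benchmarks: DMSO vehicle wells and RFP-L50D-GFP reporter cell wells. Times: overnight cell settling, then overnight compound exposure, 37 °C, 5% CO2. Compound: 20 µM single dose, 1% DMSO. Read-out basis: GFP/RFP fluorescence ratio.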
eIF4H FP inh: human eIF4H binding inhibitors, primary screen, translation initiation inhibitor project, biochemical, uHTS, fluorescence polarization; AID 2012, 2009; Eukaryotic translation initiation factor 4H (Homo sapiens), Q15056; 290,000 compounds, 0.94% hits; eIF4H fluorescence polarization binding assay; inhibition, % at 35 µM;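 active = 50% or more with normal probe brightness, or confirmed in later tests; inconclusive = above 50% with abnormal brightness, or retests that disagree; inactive = below 50% or failed in later tests; about a fifth of its hits are not listed in these tables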;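 note: calls also rest on retests at 20 µM and on dose response follow-up; 0% = protein and probe with vehicle and 100% = probe without protein; strong numbers were not always called active; many hits fall short of the cut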
Rce1 inhib: yeast Rce1p protease inhibitors, primary screen, biochemical, fluorescence, cell-free homogeneous. AID 2563, 2010. 290,000 compounds, 0.27% hits. CAAX prenyl protease 2 (Saccharomyces cerevisiae (strain ATCC 204508 / S288c)), Q03530. yeast membranes, quenched prenylated peptide cleavage fluorescence. calls only;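 active = fall in fluorescence gain of 50% or more versus controls, with final raw signal at or below 3038400; inconclusive = same 50% fall but final raw signal above 3038400; inactive = fall in fluorescence gain under 50%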;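 note: plate controls were neutral control wells for no effect and wells lacking membranes for full effect; tested at 10 µM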
Target sequence (Q03530 whole entry, looked up): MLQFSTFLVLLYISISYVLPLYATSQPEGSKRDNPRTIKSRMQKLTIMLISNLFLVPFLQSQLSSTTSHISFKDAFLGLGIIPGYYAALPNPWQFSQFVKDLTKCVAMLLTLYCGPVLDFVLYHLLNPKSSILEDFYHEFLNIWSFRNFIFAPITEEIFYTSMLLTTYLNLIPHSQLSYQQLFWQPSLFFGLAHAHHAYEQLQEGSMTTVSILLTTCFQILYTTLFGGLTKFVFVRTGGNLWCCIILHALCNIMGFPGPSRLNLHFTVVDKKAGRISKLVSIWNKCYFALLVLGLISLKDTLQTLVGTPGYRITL
CSC inhib: cancer stem cell viability inhibitors, primary screen, luminescence; cancer stem cell-like cells viability; inhibition, % at 7.5 µM; 300,000 compounds, 1.1% hits;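 active = mean at 75% or more and at least half the replicates too; inconclusive = mean and replicates disagree; tested in HMLE shEcad cells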;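 note: 0% = median of negative and 100% = median of positive control wells; the first replicate is given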
eIF4H FP inh retest: further read-out of eIF4H FP inh, marked with its call; inhibition, %; compound at 20 µM; confirmation average;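 mean of two retest wells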
PABP polyA inh retest: further read-out of PABP polyA inh, marked with its call; inhibition, %; compound at 20 µM; confirmation repeats;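 mean of two retest wells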
MT1-MMP act inh RFP: second read-out of MT1-MMP act inh, no call of its own (marks repeat the call); RFP signal change, %; measured here: RFP expression control read;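 0 = vehicle wells; hits needed this value within 50% of zero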
* hit, by the source's call; i = inactive; ? = inconclusive; · = no result given. Only part of the results is shown; the hit share may differ from the screen's.

SMILES	UUG fidelity	HIV Env fusion	PABP polyA inh	MT1-MMP act inh	MT1-MMP act inh RFP	eIF4H FP inh	Rce1 inhib	CSC inhib	others
Cc1cccc(NC(=O)/C(C#N)=C\c2ccc(C(=O)O)cc2)c1	·	1.6	9.0	-2.2	3.5	4.1	i	·
CN(C(=O)COC(=O)/C=C/c1ccc2c(c1)OCO2)c1c(N)n(Cc2ccccc2)c(=O)[nH]c1=O	-6.0	3.0	·	0.7	-0.7	·	i	·
C[C@H](CO)N1C[C@H](C)[C@@H](CN(C)C(=O)Nc2ccc3c(c2)OCO3)Oc2c(NS(=O)(=O)c3ccc(F)cc3)cccc2C1=O	-12.3	-25.9	·	2.7	-0.5	·	·	29.5
COc1ccccc1N1CC(C)(C)C(=O)N(C(=O)c2ccc(C)cc2)C1=S	-3.7	-20.4	-0.7	18.3	-8.1	5.3	i	-9.6
C=CCn1c(C)nnc1SCC(=O)c1[nH]c(C)c(C(C)=O)c1C	-19.1	6.3	6.0	0.2	-5.3	-0.1	i	-1.1
Cc1ccc2cc(CCNS(=O)(=O)c3ccc(F)cc3)c(=O)[nH]c2c1C	24.0	-14.0	5.3	-2.8	-13.8	2.0	i	-9.6
CCN(CC)c1ccc(NC(=O)COC(=O)CCC(=O)c2cccs2)cc1	-30.5	·	·	12.0	3.7	·	·	-2.4
Nc1c(C(=O)N/N=C/c2cccnc2)oc2nc(-c3ccccc3)cc(-c3ccco3)c12	-0.9	-10.7	?	-5.0	6.2	?	i	-8.4
Cc1ccc(-c2nnn(Cc3nc(N)nc(N4CCOCC4)n3)n2)cc1	-2.8	-30.4	-7.7	5.9	-4.1	-10.8	i	-5.8
CC(C)(C)c1ccc(SCCc2cccnc2)cc1	·	-71.4	3.1	0.3	2.6	1.5	i	8.6
Cc1cccc(C(=O)NCc2ccco2)c1	-18.1	-12.3	20.3	-3.9	1.5	32.7	i	-4.7
O=C(CSc1nc2ccccc2c(=O)[nH]1)c1ccccc1	-32.7	·	13.8	3.3	-0.6	-0.5	i	10.4
Cc1noc(C)c1C(=O)N(C)Cc1ccccc1	·	-4.9	-3.2	2.2	7.9	3.4	i	2.3
Cn1nnc2c(N3CCCCC3)nccc21	-10.8	·	22.1	6.0	5.6	-1.6	i	-10.2
Cc1cc(NCC2CCCO2)n2c(nc3ccccc32)c1C#N (stereo not given)	-23.9	-50.5	95.6*	1.5	-4.3	60.6*	i	-0.5
O=C(NC12CC3CC(CC(C3)C1)C2)N1CC2Cc3cccc(=O)n3C(C2)C1 (stereo not given)	7.9	·	-7.4	8.7	7.0	5.0	i	·
Cc1ccc(-n2nnnc2SCC(=O)N2CCNC2=O)cc1C	-16.2	0.5	·	-0.2	-3.7	·	·	·
CCOC(=O)c1c(C)[nH]c(C)c1S(=O)(=O)N1CCCCC1	2.4	-8.4	-8.6	0.0	-0.1	2.9	i	-1.8
CC1CCCC(C)N1C(=O)COC(=O)c1cc(-c2cccs2)nn1-c1ccccc1 (stereo not given)	6.0	-9.6	·	-4.9	-4.9	·	i	-3.8
O=C(CSc1ccc(F)cc1)Nc1ccc(C2SCCS2)cc1	-23.2	-39.1	3.6	-7.0	-4.0	-8.6	i	-8.9
O=C1C=C(Nc2ccccc2)c2ccccc2C1=O	·	35.0	4.0	6.0	-7.8	-2.6	i	·
Cc1ccc([N+](=O)[O-])cc1-c1ccc(/C=C(\C#N)c2[nH]nc(N)c2C#N)o1	-13.7	-34.0	-3.0	4.3	-10.6	57.4	·	?	eIF4H FP inh retest=-2.7;PABP polyA inh retest=-4.4
Cn1nc(C(F)(F)F)c2cc(C(=O)N3CCOCC3)sc21	·	11.9	-9.1	-1.3	0.2	0.1	i	2.5
O=C(Nc1ccc(C(=O)c2ccccc2)cc1)c1ccccc1	-12.9	-31.6	-5.7	10.4	-5.4	-13.6	i	4.9
NC1=NC(=O)S/C1=C\c1ccc(F)cc1	·	-17.3	2.6	-4.1	-1.9	7.6	i	-11.1
NC(=O)c1cccn1Cc1ccccc1Cl	-23.5	16.2	7.0	9.4	1.1	-13.0	i	-7.5
CC(C)NC(=O)c1c(O)c2ccccc2[nH]c1=O	3.4	-137.1	-2.7	-1.7	-0.2	-10.4	i	-5.4
NS(=O)(=O)c1ccc(CCNC(=O)COC(=O)CC(c2ccccc2)c2ccccc2)cc1	·	8.0	3.0	3.7	-2.5	3.0	i	2.7
C=CCCC(=O)N1CCC(n2nccc2NC(=O)CCCc2ccccc2)CC1	-3.1	-2.4	-2.5	-4.5	-1.1	-5.2	i	-0.6
C(=N\N1CCN(Cc2ccccc2)CC1)/c1ccccc1	·	6.3	-4.5	0.0	0.2	4.3	i	-2.8
COc1ccc(CNCc2ccc(F)cc2)c(OC)c1	-23.1	5.1	6.4	-1.8	4.7	2.6	i	3.4
Cn1cc(Br)c(C(=O)N/N=C/c2cc3c(cc2Cl)OCO3)n1	-11.5	-27.2	1.6	-5.3	-2.8	-2.4	i	·
COC(=O)Cc1ccc(NC(=S)NCc2cccc(OC)c2)cc1	·	3.8	-7.3	-0.6	2.5	-1.5	i	-1.4
COc1ccc(NC(=O)Cn2nnc(C(=O)NCCc3ccccc3)c2N)c(OC)c1	-14.3	-0.8	11.2	-1.5	1.3	-7.4	i	-5.6
COc1ccccc1CNC(=O)C1Cc2cc(S(=O)(=O)N3CCCCC3)ccc2N1C(C)=O (stereo not given)	-8.7	-3.8	3.8	0.1	1.2	-9.2	i	8.4
O=C(C1CC(c2ccccc2O)=NO1)N1CCc2ccccc2C1 (stereo not given)	-13.1	·	1.0	4.6	0.4	-4.3	i	·
O=C(NC(c1ccccc1)c1ccccn1)c1cccc([N+](=O)[O-])c1 (stereo not given)	·	14.5	-8.7	-2.6	3.4	-4.4	i	-23.4
CCn1cc(CNC(=S)Nc2cccc3ccccc23)cn1	·	8.3	-14.0	1.0	2.8	-2.1	i	·
COc1ccc(NC(C)=O)cc1NC(=O)CN1CCN(CC(=O)Nc2ccccc2Cl)CC1	4.1	·	-11.6	1.8	-4.2	-3.8	i	-10.9
COc1ccc(N2CCN(C(=O)c3ccc(NS(=O)(=O)c4ccc(F)c(F)c4)cc3)CC2)cc1	-3.7	18.3	-3.4	-4.0	-6.5	-9.9	i	2.0
COc1ccccc1C(=O)N/N=C(\C)CC(=O)Nc1ccccn1	·	8.5	-4.3	-3.5	-1.8	-7.0	i	-4.2
COC(=O)c1ccccc1NCc1cc(=O)oc2cc(O)c(O)cc12	-12.7	-5.3	7.7	-0.5	-6.6	9.1	i	92.3*
CC1CCc2sc(C(=O)Nc3nnc(SCc4ccc(F)cc4)s3)cc2C1 (stereo not given)	·	·	-3.8	-3.3	-8.1	-10.3	i	4.9
OCCNc1cc(Cl)ncn1	·	2.4	-16.9	1.0	0.9	-3.8	i	-21.5
O=C(Nc1cc(C(F)(F)F)ccc1Cl)c1cccc(N2C(=O)CCC2=O)c1	-10.7	7.7	1.4	-1.9	-3.5	-4.7	i	-3.0
CCc1cccc2c1NC(=O)C21OCCO1	-14.0	4.0	-0.5	-1.6	1.5	7.8	i	-9.4
O=C(c1ccc(S(=O)(=O)Cc2ccccc2F)c([N+](=O)[O-])c1)N1CCCC1	·	8.7	1.5	-5.1	-6.0	-1.1	i	1.3
Cc1csc(-c2ccc3cc(Cl)cc(Cl)c3n2)n1	-11.0	-343.3	·	3.5	6.2	·	·	·
CCC1C(=O)NCCN1C(=O)c1ccccc1OC1CCN(S(C)(=O)=O)CC1 (stereo not given)	·	-0.1	1.4	-1.2	5.2	-0.6	i	-10.9
Cc1ccc(N(C)C(=O)N2CCN(S(=O)(=O)c3ccc(C)cc3)CC2)cc1	6.7	14.6	7.1	1.4	1.1	-4.7	i	-0.6

Compounds above containing an aryl thioether with sulfur outside any ring (six):
SMILES	UUG fidelity	HIV Env fusion	PABP polyA inh	MT1-MMP act inh	MT1-MMP act inh RFP	eIF4H FP inh	Rce1 inhib	CSC inhib	others
C=CCn1c(C)nnc1SCC(=O)c1[nH]c(C)c(C(C)=O)c1C	-19.1	6.3	6.0	0.2	-5.3	-0.1	i	-1.1
CC(C)(C)c1ccc(SCCc2cccnc2)cc1	·	-71.4	3.1	0.3	2.6	1.5	i	8.6
O=C(CSc1nc2ccccc2c(=O)[nH]1)c1ccccc1	-32.7	·	13.8	3.3	-0.6	-0.5	i	10.4
Cc1ccc(-n2nnnc2SCC(=O)N2CCNC2=O)cc1C	-16.2	0.5	·	-0.2	-3.7	·	·	·
O=C(CSc1ccc(F)cc1)Nc1ccc(C2SCCS2)cc1	-23.2	-39.1	3.6	-7.0	-4.0	-8.6	i	-8.9
CC1CCc2sc(C(=O)Nc3nnc(SCc4ccc(F)cc4)s3)cc2C1 (stereo not given)	·	·	-3.8	-3.3	-8.1	-10.3	i	4.9

Continued:
SMILES	UUG fidelity	HIV Env fusion	PABP polyA inh	MT1-MMP act inh	MT1-MMP act inh RFP	eIF4H FP inh	Rce1 inhib	CSC inhib	others
CCc1nc2ccc(C(=O)N3CCN(C(=O)c4ccco4)CC3)cn2c1N(C)C(=O)c1cccc(OC)c1	-15.1	21.2	·	1.0	4.9	·	·	·
Cc1cc(-c2nc3ccccc3[nH]2)ccc1N	-29.2	-157.6	12.3	8.0	-0.1	-1.6	i	32.2
CCc1nc2ccccc2[nH]c1=O	·	-24.5	0.8	-0.3	2.3	-9.3	i	-4.4
CC(C)CN(CCCNC(=O)CC1Oc2ccccc2NC1=O)CC(C)C (stereo not given)	19.8	·	-2.4	4.7	3.8	-4.4	i	-3.8
CC(C)CCCN1CCN=C1N(C)C	-6.7	5.0	0.4	-0.4	4.2	-0.8	i	-6.3
Cc1ccc(C)c(CNC(=O)Nc2ccccc2)c1	·	-3.1	7.3	-1.5	0.8	-10.1	i	2.9

Structures from the list above with two or more sulfur atoms, in the order listed:
SMILES	UUG fidelity	HIV Env fusion	PABP polyA inh	MT1-MMP act inh	MT1-MMP act inh RFP	eIF4H FP inh	Rce1 inhib	CSC inhib	others
O=C(CSc1ccc(F)cc1)Nc1ccc(C2SCCS2)cc1	-23.2	-39.1	3.6	-7.0	-4.0	-8.6	i	-8.9
CC1CCc2sc(C(=O)Nc3nnc(SCc4ccc(F)cc4)s3)cc2C1 (stereo not given)	·	·	-3.8	-3.3	-8.1	-10.3	i	4.9
